eIF4H FP inh = inhibitors of RNA binding by human eIF4H | eIF4H fluorescence polarization binding assay | inhibition, % at 35 µM | 290,000 compounds, 0.94% hits | AID 2012;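 active = 50% or more with normal probe brightness, or confirmed in later tests; inconclusive = above 50% with abnormal brightness, or retests that disagree; inactive = below 50% or failed in later tests; about a fifth of its hits are not listed in these tables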;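 also: calls also rest on retests at 20 µM and on dose response follow-up; 0% = protein and probe with vehicle and 100% = probe without protein; strong numbers were not always called active; many hits fall short of the cut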
CSC inhib = cancer stem cell inhibition. cancer stem cell-like cells viability, luminescence. inhibition, % at 7.5 µM. 300,000 compounds, 1.1% hits;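 active = mean at 75% or more and at least half the replicates too; inconclusive = mean and replicates disagree; tested in HMLE shEcad cells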;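 also: 0% = median of negative and 100% = median of positive control wells; the first replicate is given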
Env fusion inh = blocks HIV Env-driven cell-cell fusion. 360,000 compounds, 1.1% hits. inhibition, % at 12.3 µM. HeLa-JRFL Env/CEM21 cell fusion, luciferase;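 active = mean replicate inhibition score of at least 50 and every replicate individually at or above 50; inconclusive = only one of the two criteria met; inactive = mean below 50 and not all replicates reaching 50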;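 also: 0% = plate neutral controls and 100% = maraviroc near 300 nM; one replicate is shown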
UUG fidelity = alters start codon recognition fidelity in yeast. S. cerevisiae UUG-firefly luciferase reporter, luminescence/redox ratio. activity score, % at 18.7 µM. 350,000 compounds, 0.13% hits;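 active = replicate mean at a twofold rise or more, about +100% in these data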;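 also: firefly luciferase made from a UUG start codon reports start codon fidelity; reporter light over untreated wells divided by growth signal over untreated wells; some hits fall short of that in this replicate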
PABP polyA inh = PABP-poly(A) binding inhibition; P11940; PABP-poly(A) RNA binding, fluorescence polarization; inhibition, % at 35 µM; 290,000 compounds, 1% hits;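 active = 50% or more with normal probe brightness, or confirmed in later tests; inconclusive = above 50% with abnormal brightness, or retests that disagree; inactive = below 50% or failed in later tests; about a fifth of its hits are not listed in these tables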;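 also: calls also rest on retests at 20 µM and on dose response follow-up; controls were probe without protein and protein plus probe with vehicle; some compounds called inactive have numbers as strong as hits; many hits fall short of the cut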
MT1-MMP act inh = blocks activation of human MT1-MMP | 360,000 compounds, 0.061% hits | AID 651647 | P50281 | GFP/RFP ratio change, % at 20 µM | HT1080 RFP-PRO-GFP cells, GFP/RFP ratio fluorescence, overnight; percent of plate control window, DMSO zero;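 active = GFP/RFP ratio change of at least 30% with cell ATP level not reduced by more than half and red fluorescence within 50% of control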; also: strong numbers were not always called active
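Assay system: HT1080 cells carrying an RFP-PRO-GFP reporter | Dosing: Single dose of 20 µM compound, 1% DMSO final | Incubation: Cells overnight before dosing, compound overnight, 37 °C, 5% CO2 | Evaluation: GFP/RFP fluorescence ratio | Control set: DMSO and RFP-L50D-GFP cell wells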
Rce1 inhib = blocks yeast Ras-converting enzyme; Q03530; yeast membranes, quenched prenylated peptide cleavage fluorescence; calls only; 290,000 compounds, 0.27% hits; AID 2563;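 active = fall in fluorescence gain of 50% or more versus controls, with final raw signal at or below 3038400; inconclusive = same 50% fall but final raw signal above 3038400; inactive = fall in fluorescence gain under 50%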;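 also: plate controls were neutral control wells for no effect and wells lacking membranes for full effect; tested at 10 µM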
Target sequence (Q03530 whole entry, looked up): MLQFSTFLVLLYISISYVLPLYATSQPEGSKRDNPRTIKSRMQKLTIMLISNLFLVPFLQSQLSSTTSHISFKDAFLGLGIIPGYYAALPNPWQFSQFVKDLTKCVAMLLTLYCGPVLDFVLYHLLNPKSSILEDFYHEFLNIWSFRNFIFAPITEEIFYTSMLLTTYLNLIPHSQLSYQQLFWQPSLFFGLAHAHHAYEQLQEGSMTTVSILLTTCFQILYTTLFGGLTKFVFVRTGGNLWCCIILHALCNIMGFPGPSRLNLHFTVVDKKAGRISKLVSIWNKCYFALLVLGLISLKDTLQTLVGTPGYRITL
MT1-MMP act inh RFP = recorded beside MT1-MMP act inh, whose call it bears; RFP signal change, %; measured here: RFP expression control read;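 0 = vehicle wells; hits needed this value within 50% of zero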
An asterisk follows results filed as active; i = inactive; ? = inconclusive; . = not tested or not shown; + = active, no number.

SMILES | eIF4H FP inh | CSC inhib | Env fusion inh | UUG fidelity | PABP polyA inh | MT1-MMP act inh | MT1-MMP act inh RFP | Rce1 inhib
COc1ccc(-c2noc3c2-c2nc(C4CCCCC4)sc2CC3)cc1 | -7 | 70 | 7 | -1 | 17 | 8 | 4 | i
COc1ccc2[nH]c(C)c(CCNC(=S)Nc3cc(C)cc(C)c3)c2c1 | 4 | -10 | 0 | -8 | -4 | 1 | -5 | i
CC(C)C[C@@H](CN)NC(=O)c1nc[nH]c1C(=O)N[C@@H](Cc1ccccc1)C(=O)CNC[C@H](C)NC(=O)c1nc[nH]c1C(=O)N[C@@H](CC(C)C)C(=O)O | . | . | -7 | 30 | . | 2 | 4 | .
CN1CCC(N2CCCC(C(=O)O)C2)CC1 (stereo not drawn) | -5 | -14 | 13 | . | 23 | 5 | 2 | i
CCCc1cc(=O)n2[nH]c(C)c(-c3ccccc3)c2n1 | -7 | 2 | . | -19 | 13 | 0 | 4 | +
O=C(COc1ccc(Cl)cc1)N1CCN(C(=O)c2cccs2)CC1 | -11 | . | 5 | . | 8 | -4 | -10 | i
O=C(Nc1cccc(Cl)c1)c1ccc2c(c1)SC1=NS(=O)(=O)CCN12 | 1 | . | -4 | . | 6 | 7 | -1 | .
O=C(O)COc1ccc(/C=N/NC(=O)COc2nsnc2N2CCOCC2)cc1 | 7 | 0 | -3 | -1 | 4 | 2 | 4 | i
Cc1ncc(CN2CCCC(C(=O)Nc3ccc(-c4ccco4)cc3)C2)cn1 (stereo not drawn) | -8 | 12 | -4 | -8 | 2 | -7 | 4 | i
Cn1nc(Oc2nc(N3CCOCC3)nc(N3CCOCC3)n2)ccc1=O | -35 | -8 | -81 | -27 | -4 | -1 | 5 | i
CCOc1nc(NC(=O)NS(=O)(=O)Oc2cccc(Cl)c2)nc(-c2ccccc2)n1 | -3 | . | -11 | . | 16 | 0 | 1 | .
Cc1csc(SCC(=O)Nc2ccc3c(c2)OCCO3)n1 | 4 | . | -70 | . | -12 | 0 | 0 | i
COc1ccc(N=C(C)C2=C(O)CSC2=O)cc1 | -6 | 8 | . | -24 | 4 | -6 | 0 | i
OCCN1CCN(CC/C=C2/c3ccccc3CSc3ccccc32)CC1 | . | 26 | 17 | -22 | . | 4 | 0 | i
CC1(c2ccccc2)CC(C)(C)N(C(=O)CSc2nnc(N)s2)c2ccccc21 (stereo not drawn) | 4 | -3 | 4 | . | 6 | -12 | -7 | i
O=C(O)C=C1C2CC3CC(C2)CC1C3 | -8 | 3 | -22 | -1 | 8 | -3 | 0 | i
CS(=O)(=O)N(Cc1ccco1)CC(O)Cn1cc(C=O)c2ccccc21 (stereo not drawn) | 44 | . | 26 | -5 | 1 | 3 | -3 | i
Cc1ccc(CNC(=O)C(C)C2Sc3ccccc3NC2=O)cc1 (stereo not drawn) | -7 | -4 | 11 | -2 | -1 | 2 | 3 | i
CC1(C)CC(=O)C(N=Nc2cc(Cl)c(Cl)c(Cl)c2)=C(O)C1 | -6 | -4 | -49 | -17 | 10 | 1 | 3 | .
COCCn1c(SCC(=O)N2CCOCC2)nc2ccccc2c1=O | -2 | 2 | 10 | 0 | 8 | 1 | 1 | .
COC(CNC(=O)c1ccc2c(c1)ncn2-c1ccc(F)c(F)c1)OC | 0 | 7 | -6 | . | -8 | 0 | 4 | i
CS(=O)(=O)Nc1ccccc1C(=O)Nc1ccccc1C(=O)N1CCCC1 | 0 | -20 | 0 | 6 | 11 | -1 | 2 | i
CC(=O)c1cn(CCC(C)C)c(=O)[nH]c1=O | -4 | -12 | -17 | . | 1 | -1 | 4 | i
CC1(C)C(=O)NCCN1C(=O)CCC(=O)O | 6 | 9 | . | -16 | ? | -3 | 2 | i
CC(C)(C)c1ccc(/C=C/C(=O)Nc2ccncc2)cc1 | -11 | 8 | -1 | . | -2 | -2 | -13 | i
CCc1nnc(NS(=O)(=O)c2ccc(N3C(=O)c4ccc(C(=O)O)cc4C3=O)cc2)s1 | 1 | 0 | 24 | . | -4 | 4 | 6 | .
COc1ccc(CCC(C)NCc2cc(OC)cc(OC)c2)cc1 (stereo not drawn) | -8 | 9 | 71* | -14 | 1 | -2 | -3 | i
CN(CC(=O)Nc1cccc(S(=O)(=O)N(C)C)c1)Cc1ccccc1 | -8 | -7 | 3 | -14 | -7 | 6 | 2 | i
O=C(COc1ccccc1[N+](=O)[O-])Nc1ccccc1N1CCCCC1 | -7 | 70 | . | -9 | -6 | 1 | -1 | i
COc1ccc(NC(=O)CN2C(=O)C(c3ccccc3)=NC23CCCCCC3)cc1OC | -4 | -17 | 6 | . | -9 | -7 | -7 | i
CC(=O)NS(=O)(=O)c1ccc(NC(=O)C2C3C=CC(C3)C2C(=O)O)cc1 (stereo not drawn) | -8 | -20 | . | . | 1 | 1 | 4 | .
CCC(C(=O)OC)n1cnc2scc(-c3ccc(C)cc3)c2c1=O (stereo not drawn) | -6 | -8 | 6 | -3 | -2 | -5 | -1 | i
COc1ccc(OCC(O)CNS(=O)(=O)c2ccc(C)cc2)cc1 (stereo not drawn) | -1 | -1 | 1 | 2 | -11 | 2 | -2 | i
CCN1CCN(c2ccc(NC(=O)c3cccc(F)c3)cc2Cl)CC1 | -4 | . | -5 | -9 | 0 | 1 | 0 | i
CSCCC(=O)N1C(C)CCCC1C(=O)O (stereo not drawn) | -14 | 1 | . | -11 | -6 | 3 | -2 | i
Cn1c(=O)[nH]c(=O)c2c1nc(N1CCC(Cc3ccccc3)CC1)n2Cc1ccccc1 | -9 | 14 | . | -15 | -4 | -2 | -16 | i
COc1ccc(C2CC(c3ccc4ccccc4c3)=NN2C(=O)CNC2CCCCC2)cc1 (stereo not drawn) | -6 | -6 | -14 | -14 | -5 | -14 | -15 | +
OC[C@@H]1CN(Cc2ccncc2)C[C@H](n2cnc3c(N4CCCC4)ncnc32)O1 | . | . | -9 | -2 | . | 2 | -1 | .
S=c1[nH]nc(-c2ccc(Cl)cc2)n1-c1ccc2c(c1)OCCO2 | -6 | -48 | 11 | . | -4 | 1 | 7 | i
COc1ccc(C(CC(=O)N2CCCC(C)C2)c2c(OC)cc(OC)c3c(-c4ccccc4)cc(=O)oc23)cc1 (stereo not drawn) | . | 6 | 41 | -13 | . | -3 | -5 | i
O=C(NCc1ccc(Cl)cc1)c1ccc(CNc2c(N3CCOCC3)c(=O)c2=O)cc1 | -7 | -5 | 4 | -3 | 7 | 4 | 2 | i
CC(C)c1ccc(NC2CCCN(C(=O)c3cc(C(C)C)nc(N)n3)C2)cc1 (stereo not drawn) | -8 | 7 | 9 | 10 | -2 | 0 | 0 | i
COCCNC(=O)C(c1ccc(C)o1)N(Cc1cccs1)C(=O)c1snc(C(N)=O)c1N (stereo not drawn) | -6 | 13 | . | -16 | 10 | 3 | 1 | i
Cc1ccc(S(=O)(=O)N(CC(=O)NC2CCCC2)c2cccc(C)c2)cc1 | 2 | -8 | . | 4 | 8 | -4 | -3 | i
CC(C)(C)c1cc(N)on1 | -2 | -1 | . | -15 | 3 | 4 | 9 | i

In a second layout: entries from further up
| smiles | eIF4H FP inh | CSC inhib | Env fusion inh | UUG fidelity | PABP polyA inh | MT1-MMP act inh | MT1-MMP act inh RFP | Rce1 inhib |
| --- | --- | --- | --- | --- | --- | --- | --- | --- |
| CC(C)(C)c1cc(N)on1 | -2 | -1 | . | -15 | 3 | 4 | 9 | i |
| COc1ccc(C(CC(=O)N2CCCC(C)C2)c2c(OC)cc(OC)c3c(-c4ccccc4)cc(=O)oc23)cc1 (stereo not drawn) | . | 6 | 41 | -13 | . | -3 | -5 | i |

Further structures.
SMILES | eIF4H FP inh | CSC inhib | Env fusion inh | UUG fidelity | PABP polyA inh | MT1-MMP act inh | MT1-MMP act inh RFP | Rce1 inhib
COc1ccc2c(CC(=O)OCC(=O)c3ccccc3OC)coc2c1 | -4 | 0 | . | 5 | -9 | 1 | 2 | i
CCOCCCNC(=O)C1CCCCN1S(=O)(=O)c1ccc(F)cc1 (stereo not drawn) | -14 | -11 | 22 | -23 | -2 | 11 | 5 | i
CC(C)[C@H](CN1CCC[C@H]1CN1C(N)=NC[C@@H]1Cc1ccccc1)N1C[C@@H](Cc2ccccc2)N(CCc2ccc(Cl)c(Cl)c2)C1=N | . | 20 | . | 9 | . | 1 | 8 | .
CCOc1cc(N2CCOCC2)c(OCC)cc1NC(=O)CSc1nccc(C)n1 | -3 | . | 25 | -14 | 10 | 4 | 0 | i
Cc1onc(-c2ccccc2Cl)c1C(=O)OCC(=O)c1ccc2c(c1)OCCO2 | -10 | -3 | -61 | . | -8 | 0 | -10 | i
CCOC(=O)COc1nc(-c2ccco2)cc(-c2ccco2)c1C#N | 89* | -10 | 9 | -14 | 58* | -2 | 1 | i
CNCCOCC(O)CSc1ccccc1 (stereo not drawn) | -8 | 1 | . | 0 | 8 | 8 | 12 | i
Cc1c(C(=O)/C=C/N(C)C)nnn1-c1ccc(Cl)c(Cl)c1 | -9 | -13 | -3 | . | 0 | -4 | -5 | i
Cc1ccc(C)c(CN2CCN(c3ncccn3)CC2)c1 | 13 | -9 | -9 | -16 | 16 | 3 | 1 | i
CCSCCOC(=O)C1=C(C)NC(=O)NC1c1cc(OC)ccc1OC (stereo not drawn) | -11 | -1 | . | -14 | -6 | 6 | 0 | i
O=C(Nc1cccc(F)c1)c1ccc(Cn2cc([N+](=O)[O-])cn2)o1 | -2 | . | 6 | . | -1 | 2 | -2 | i
Cc1ccc(NC(=S)N/N=C/c2cccn2Cc2ccccc2F)cc1 | 8 | 14 | -8 | -5 | 0 | -4 | -7 | i
Cc1ccc(C(=O)C2=C(O)C(=O)N(CCCN(C)C)C23C(=O)N(C)c2ccccc23)o1 (stereo not drawn) | -4 | 5 | 21 | -19 | 11 | -3 | 7 | i
Cc1cccc(NC(=O)CSc2nc3c(c(=O)[nH]2)CCC3)c1C | -4 | -8 | -3 | -15 | -4 | 3 | 1 | i
O=[N+]([O-])c1ccc(CSc2nnc(-c3cnccn3)o2)cc1 | 6 | 9 | -59 | 3 | -3 | -3 | -2 | i
O=S(=O)(CCSc1ccccn1)c1nc2ccccc2s1 | -4 | 58 | . | -27 | 1 | -4 | -5 | i
O=c1cc(N2CCC(Cc3ccccc3)CC2)[nH]c(=O)n1C1CCCCC1 | 4 | 26 | . | -3 | 7 | -6 | -14 | i
O=C(/C=C/c1c(F)cccc1Cl)Nc1nn[nH]n1 | -9 | 5 | -1 | . | 14 | 0 | 1 | i
CN(CC(=O)Nc1ccccc1Cl)C(=O)COC(=O)CN1C(=O)NC2(CCCC2)C1=O | -16 | 1 | 1 | -17 | -7 | 0 | 2 | i
CC(=O)N1CCN(CCN=CC2=C(O)CC(c3cccs3)CC2=O)CC1 (stereo not drawn) | -6 | -8 | . | -9 | 2 | 2 | 4 | i
COc1ccc(NC(=O)c2cc3cc(C)ccc3n2C)c(OC)c1 | -7 | -5 | -12 | -4 | -6 | -4 | -5 | i
Cc1ccc(-c2nnc(-c3cccnc3)o2)cc1 | 0 | 2 | -56 | -13 | 9 | -1 | -2 | i
CCc1cc(C(=O)NCC2CCCO2)sc1C (stereo not drawn) | -12 | -10 | -4 | 2 | 0 | 2 | 2 | i
CC(C)CC1C(C#N)=C(N)Oc2n[nH]c(-c3cccs3)c21 (stereo not drawn) | -5 | -2 | 15 | -14 | 2 | 3 | 2 | i
COc1cc(NC(=S)Nc2ncccc2C)cc(OC)c1OC | -2 | -13 | -11 | -12 | -3 | 3 | 9 | i
CCCC(c1c(C)n(C)n(-c2ccccc2)c1=O)c1c(C)n(C)n(-c2ccccc2)c1=O | 2 | -9 | -94 | -3 | -10 | 2 | 2 | i

Compound activity as filed in PubChem BioAssay.
